NS1 inh – blocks influenza NS1 protein function; actives 0.4% (n = 270,000); AID 2326; Potency, µM (top dose mostly 46.1 µM), inactives show at the highest dose activity, positive = more growth; S. cerevisiae slowed by influenza A NS1, growth recovery by OD600; active means well fitted rising curve with a large enough effect; inconclusive means small, poorly fitted or top-dose-only effect; inactive means no such curve, though single readings can be large or run the other way; note: nearly all actives have a fitted effect of over 50% in size
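Read-out: OD600 growth recovery of NS1-expressing budding yeast. Cells grown overnight at 30C in -URA glucose medium, washed, resuspended and diluted 1:100 in 2% galactose assay medium, pH 6.0. Same strain lacking NS1 served as positive control.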
Cruzain noTriton – inhibitors of Trypanosoma cruzi cruzain without detergent; P25779; actives 2.3% (n = 200,000); AID 1476; Potency, µM, without a hit: max response, negative = inhibition, hits mostly inhibitors; purified cruzain, Z-FR-AMC fluorescence, no detergent;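 note: plate controls were enzyme without inhibitor for no effect and buffer without enzyme for full effect; nearly all actives have a fitted effect of over 40% in size; top concentration of the series not given in the record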
Target sequence (P25779 123-467 limits assumed): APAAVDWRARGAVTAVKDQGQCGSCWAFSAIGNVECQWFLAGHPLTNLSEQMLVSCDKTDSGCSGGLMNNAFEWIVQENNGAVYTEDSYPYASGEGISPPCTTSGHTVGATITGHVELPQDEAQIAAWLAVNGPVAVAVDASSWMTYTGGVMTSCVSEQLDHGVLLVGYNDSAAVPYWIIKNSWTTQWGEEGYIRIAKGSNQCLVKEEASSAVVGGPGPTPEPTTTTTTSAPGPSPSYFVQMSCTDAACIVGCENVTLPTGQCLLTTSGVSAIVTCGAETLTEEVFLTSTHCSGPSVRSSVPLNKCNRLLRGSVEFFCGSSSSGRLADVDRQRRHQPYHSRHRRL
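Purified cruzain at 1.5 nM, pre-incubated 15 min with compound at room temperature in 100 mM sodium acetate pH 5.5, 5 mM DTT, 0.00005% Triton X-100. Reaction started with 2 uM Z-FR-AMC; AMC fluorescence increase over 60 s gives rate.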
RE007 growth inh – less growth of the S. pombe RE007 Vpr strain. S. pombe RE007 Vpr strain, BacTiter-Glo ATP luminescence, 24 h; control for the full effect not named in the record. Potency, µM (top dose mostly 92.2 µM), inactives show at the highest dose activity change, negative = less growth. actives 0.21% (n = 360,000); active = well fitted falling curve with a large enough effect; inconclusive = small, poorly fitted or top-dose-only effect; inactive = no such curve, though single readings can be large or run the other way;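 note: % is set by controls: 0 for no effect and ±100 for the full control effect; nearly all actives have a fitted effect of over 50% in size; the assay follows cell death caused by Vpr and the record does not say whether a fall means rescue or toxicity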
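Fission yeast strain RE007, carrying one chromosomally integrated HIV-1 vpr copy, was seeded at OD 0.01 in PMG+AL medium with 23 nL pinned compound. After 24 h at 30 °C and 99% humidity, viability was read by BacTiter-Glo luminescence.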
Lassa entry inh – blocks Lassa virus binding to or entry into cells; Lassa virus pseudotype entry inhibition, cell reporter; control for the full effect not named in the record; AID 540256; actives 1.2% (n = 300,000); Potency, µM (series often up to 37.9 µM), without a hit: at the highest dose activity change, negative = inhibition, actives largely listed as inhibitors; active means well fitted inhibition curve with a large enough effect; inconclusive means small, poorly fitted or top-dose-only effect, or effect the other way; inactive means flat fitted curve, though single readings scatter; tested in HEK293 cells; note: % is set by controls: 0 for no effect and ±100 for the full control effect; nearly all actives have a fitted effect of over 50% in size; luciferase read-out
Marburg entry inh – blocks Marburg virus binding to or entry into cells; Marburg virus pseudotyped entry inhibition, cell reporter; control for the full effect not named in the record; about a third of the inactives were read at about 46 µM; Potency, µM (titrated, usually from 37.8 µM), for the others: at the highest dose activity change, negative = inhibition, hits mostly inhibitors; actives 1.8% (n = 300,000); AID 540276; active = well fitted inhibition curve with a large enough effect; inconclusive = small, poorly fitted or top-dose-only effect, or effect the other way; inactive = flat fitted curve, though single readings scatter; tested in HEK293 cells; about a fifth of its hits are not listed in these tables; note: % is set by controls: 0 for no effect and ±100 for the full control effect; luciferase read-out
SARS PLpro yeast – blocks SARS-CoV papain-like protease in a yeast assay. S. cerevisiae expressing SARS-CoV PLpro, growth rescue; control for the full effect not named in the record. Potency, µM (doses to about 32.9 µM), for inactives: top-dose activity, positive = growth rescue. actives 0.19% (n = 330,000); active means well fitted rising curve with a large enough effect; inconclusive means small, poorly fitted or top-dose-only effect; inactive means no such curve, though single readings can be large or run the other way; note: 0% is about no effect; nearly all actives have a fitted effect of over 55% in size; growth read by luminescence after 48 h
Cruzain inh Det – cruzain (T. cruzi) inhibition with detergent. AID 1478. Potency, µM, inactives show max response, negative = inhibition, usual class: inhibitors. purified cruzain, Z-FR-AMC fluorescence, 0.01% Triton. actives 0.43% (n = 200,000). P25779;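 note: plate controls were neutral wells for no effect and buffer without enzyme for full effect; nearly all actives have a fitted effect of over 40% in size; top concentration of the series not given in the record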
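In this qHTS format, compounds are incubated with 1.5 nM cruzain for 15 min at room temperature before 2 uM Z-FR-AMC is added. Release of AMC is followed at 360/450 nm, and progress is taken as the 60 s fluorescence difference.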
StopGo reporter – FMDV 2A StopGo reporter, luciferase signal; human cells with a luciferase reporter of 2A StopGo recoding; control for the full effect not named in the record; Potency, µM (doses to about 57.9 µM), inactives show top-dose signal change, negative = less light; actives 1.2% (n = 410,000); AID 1159524; active = well fitted falling curve with a large enough effect; inconclusive = small, poorly fitted or top-dose-only effect; inactive = no such curve, though single readings can be large or run the other way; tested in HEK293T cells; note: % is set by controls: 0 for no effect and ±100 for the full control effect; nearly all actives have a fitted effect of over 45% in size; luciferase light after 4 h
The depositor's hits bear a star; ? = inconclusive; nt = not tested or not shown; & = joins results of further samples; [ ] = remark or other dose. Unless noted, calls come from the whole dose curve; as a rule, active = well fitted curve in the direction sought with a large enough effect; inconclusive = small, poorly fitted or top-dose-only effect, or another doubt; inactive = no such curve, though single readings can be large; an effect the other way counts as inactive or inconclusive. Potency is the fitted concentration of half-maximal effect.

canonical_smiles	NS1 inh	Cruzain noTriton	RE007 growth inh	Lassa entry inh	Marburg entry inh	SARS PLpro yeast	Cruzain inh Det	StopGo reporter
CC(=O)c1ccc(OCCCC(=O)OCc2nnc(-c3ccc(Cl)cc3)o2)cc1	-70%	19%	-16%	-3%	7%	1%	-8.9%	0%
Cc1sc2c(c1C)CN(C1CC(C)(C)NC(C)(C)C1)CN2C(=O)c1ccco1	-8%	-15%	nt	nt	3%	-3%	-1.2%	nt
COc1ccc(Cl)cc1NC(=O)CCN1C(=O)c2ccccc2Sc2ncccc21	nt	-9%	nt	2%[46.1 µM]	nt	nt	-1.9%	-12%
CCc1ccccc1N(C(=O)c1snc(C(N)=O)c1N)C(C(=O)NCC1CCCO1)c1ccc(N(C)C)cc1 (stereo not given)	4%	nt	-5%	?	-1%[46.1 µM]	-9%	nt	-9%
O=C(NCc1nnc(SCc2ccc(F)cc2)n1-c1ccccc1)C12CC3CC(CC(C3)C1)C2	-3%	17%	19%	?	?	-3%	-4.7%	40µM*
COc1ccc(NC(=O)Cn2nnc(C(=O)Nc3ccc(F)c(Cl)c3)c2N)cc1OC	5%	-21%	33%	?	nt	-13%	0.8%	-12%&4%
Cc1ccc(CN2C(=O)CCC2C(=O)N2CCN(c3ccc(F)cc3)CC2)cc1 (stereo not given)	-2%	?	-6%	?	6%	-3%	-1.6%	-18%
O=C(Nc1ccccc1Cl)N1CCN(c2ccc3nnc(-c4ccccc4)n3n2)CC1	-62%	?	-4%	nt	0%	-5%	-9.4%	?
CCCC(=O)NCCCc1nc2ccccc2n1C(C)C	7%	-8%	0%	nt	nt	-4%	-2.6%	-8%
Cc1ccc(C)c(NC(=O)CSc2nnc(CCCCCNC(=O)OC(C)(C)C)o2)c1	-12%	?	19%	6%	-3%	-12%	4.2%	16µM*
CN(Cc1ccccc1)C(=O)CN(c1ccc(F)cc1)S(=O)(=O)c1ccc2c(c1)OCCO2	0%	24%	-1%	?	-17%	2%	-1.9%	-7%
COc1cc(OC)c(NC(=O)Cn2cnc3sc(C)c(S(=O)(=O)N4CCC(C)CC4)c3c2=O)cc1Cl	nt	5%	nt	?	?	nt	-0.8%	-29%
Cc1ccc(-c2cc(C(=O)N3CCOCC3)c3ccccc3n2)cc1	-37%	5%	13%	-1%	-1%[46.1 µM]	-16%	-4.2%	41%[activator]
Cc1c(/N=C/c2ccco2)n(Cc2ccccc2)c2ccccc12	31%	4%	-15%	-12%	-20%	-2%	-3.1%	-18%
CC/C(=N\NC(=O)C(N)=O)c1ccccc1O	-2%	-6%	nt	3%	31%	3%	-5.1%	-17%
Cc1nc2c(C(=O)O)cnn2c(C)c1Cc1ccccc1	nt	-6%	nt	-2%[46.1 µM]	nt	nt	0.0%	-23%
COc1ccc(N(CC(=O)Nc2ccc(Cl)cc2)S(=O)(=O)c2c(C)n[nH]c2C)cc1	5%	nt	1%	nt	nt	0%	nt	-15%
Cc1c2cnn(CC(=O)O)c(=O)c2c(C)n1Cc1ccccc1	2%	2%	3%	nt	nt	0%	3.1%	-19%
Cc1ccccc1NC(=O)c1sc2nc3c(cc2c1N)CCCC3	nt	9%	nt	12%[46.1 µM]	?	nt	-2.3%	0%
COc1cccc(-c2csc(N3CCN(C(=S)Nc4ccccc4)CC3)n2)c1	22%	?	1%	-10%	21%	1%	4.3%	nt
C=C(C)CC(NCCc1ccccc1)c1ccco1 (stereo not given)	nt	nt	28%	5%	4%[46.1 µM]	0%	nt	-28%
CCC(=O)c1ccc(OCC(O)CN2CCc3ccccc3C2)cc1 (stereo not given)	0%	nt	-18%	nt	nt	-2%	nt	8%
O=P(c1ccccc1)(c1ccccc1)C1CCCO1 (stereo not given)	-1%	1%	-4%	?	7%	-5%	0.1%	19%
Cc1[nH]c(=O)[nH]c(=O)c1S(=O)(=O)N1CCCC(C(=O)NCCC2=CCCCC2)C1 (stereo not given)	nt	nt	-4%	7%	1%	0%	nt	-6%
O=C(N=C1SC2CS(=O)(=O)CC2N1c1ccc(F)c(Cl)c1)C1CCCO1 (stereo not given)	13%	nt	-5%	11%[46.1 µM]	1%[46.1 µM]	-2%	nt	-5%
COC(=O)c1cc2sc(C)cc2n1Cc1cccc(OC)c1	nt	-13%	nt	nt	?	nt	-6.0%	-7%
CCOC(=O)c1c(NC(=O)CSc2ncnc3ccccc23)sc(C(C)=O)c1C	7%	?	-5%	3%	-9%[46.1 µM]	14%	-2.6%	25µM*
Cc1ccc(N2C(=O)N(c3ccc(C)cc3)C3CS(=O)(=O)CC32)cc1 (stereo not given)	-1%	nt	11%	-23%[46.1 µM]	?	-1%	nt	4%
COc1ccc(C(CC(=O)N2CCOCC2)c2c(OC)cc(OC)c3c(-c4ccccc4)cc(=O)oc23)cc1 (stereo not given)	-8%	nt	-12%	nt	nt	0%	nt	22%
CCOC(=O)N1CCN(C(=O)CSc2nnc(COc3ccccc3)o2)CC1	11%	2%	-8%	-1%	16%&16%	12%	0.5%	-18%
CC(C)CC(=O)Nc1ccccc1OCc1cc(=O)n2ccccc2n1	nt	-8%	nt	14%[46.1 µM]	nt	nt	3.7%	14%
OC(COC(c1ccccc1)c1ccccc1)CN1CCN(c2cccc(Cl)c2)CC1 (stereo not given)	-54%	nt	18%	-30%[46.1 µM]	?	-10%	nt	-5%
C[C@H](NC(=O)Nc1cccc(C(F)(F)F)c1)C(=O)O	-8%	3%	19%	?	9%	-8%	0.3%	13%
Cc1oc(-c2cccc(Cl)c2)nc1CN1CCC(C(=O)NC(C)c2ccccc2)CC1 (stereo not given)	nt	-8%	nt	21%[46.1 µM]	8%[46.1 µM]	nt	-0.9%	35µM*
O=C(NCc1ccccc1)C(c1ccccc1)N(Cc1ccc2c(c1)OCO2)C(=O)Cc1cccs1 (stereo not given)	11%	6%	0%	13µM*	?	1%	3.0%	25%
Cc1ccc(S(=O)(=O)N(C)C)cc1NC(=S)NC12CC3CC(CC(C3)C1)C2	8%	0%	22%	-24%	-32%	4%	-5.4%	-28%
Cc1ccc(C(C)NC(=S)NC2CCCCC2)c(C)c1 (stereo not given)	-104%	nt	7%	nt	nt	-5%	nt	-25%
Cc1ccccc1OC(=O)CCC(=O)OCCCC(F)(F)C(F)(F)F	-8%	9%	1%	20%	12%	4%	-3.0%	7%
O=C1NC(c2ccccc2O)Nc2ccccc21 (stereo not given)	-21%	nt	-4%	nt	nt	-3%	nt	10%
C/C(=N\NC(=O)c1ccc2c(c1)OCCO2)c1ccccc1	-1%	nt	7%	?	?	2%	nt	-40%
Cc1ccc2c(Cl)c(C)c(N3CCCCC3)nc2n1	-23%	-18%	-26%	3%	-6%	8%	-5.2%	-24%
CC(=O)N(C)c1ccc(N=NC2C(=O)N(C(N)=S)N=C2C)cc1 (stereo not given)	-12%	nt	-12%	nt	nt	4%	nt	13%
O=C(CCNC(=O)OCc1ccccc1)NC1CCCCC1	-2%	14%	2%	0%	-13%	9%	-3.9%	-13%
Cc1ccc(CN2CCN(C3CCNCC3)C(=O)C2=O)cc1	nt	-1%	nt	15%[46.1 µM]	nt	nt	0.2%	-3%
Cc1ccc(C)c(Cc2c(C)nc3c(C(=O)NCc4ccc5c(c4)OCO5)cnn3c2C)c1	3%	3%	nt	nt	2%	-1%	2.6%	nt
Cn1ccc(/C=N/N=C2/NC(=O)CS2)n1	-2%	nt	4%	?	6%[46.1 µM]	3%	nt	15%
Cc1cc(/C=C2/NC(=O)NC2=O)c(C)n1C	nt	nt	0%	-25%	-25%[46.1 µM]	-1%	nt	5%
Cc1c(C(=O)OCC(=O)NCc2ccco2)cccc1[N+](=O)[O-]	nt	nt	-6%	6%	2%	0%	nt	-22%
CCOc1ccc(/C=N/NC(=O)c2ccccc2C)cc1CN1CC2CC(C1)c1cccc(=O)n1C2 (stereo not given)	nt	nt	-5%	nt	7%	1%	nt	-23%
CCCC(C)C(=O)Nc1cc([N+](=O)[O-])ccc1F (stereo not given)	13%	-1%	13%	16%	12%	13%	-0.9%	-25%
COc1ccc(Cl)cc1NC(=O)CN1C(=O)CSC1=O	10%	-8%	-2%	9%	-1%	-1%	3.7%	-16%
C=CCNC(=O)/C(C#N)=C\c1cc(Cl)c(O)c(OCC)c1	-8%	-4%	-12%	-3%	22%	1%	-1.4%	8%
O=C(c1ccco1)N1CCN(C(=O)c2ccccc2[N+](=O)[O-])CC1	-31%	nt	-14%	-4%[46.1 µM]	-7%[46.1 µM]	-1%	nt	-9%
CCN(c1ccccc1)S(=O)(=O)c1cc(C(=O)Nc2ccc(Br)cc2)ccc1F	-3%	?	15%	12µM*	?	3%	4.5%&-2.4%	18µM*
FC(F)(F)c1ccc(C2NCCc3sccc32)cc1 (stereo not given)	7%	nt	1%	4%[46.1 µM]	?	0%	nt	33%[activator]
COc1ccc(-c2ccc(SCC(=O)NC3CCCCC3)nn2)cc1OC	-1%	nt	-14%	nt	-6%[46.1 µM]	-4%	nt	2%

Further results follow:
canonical_smiles	NS1 inh	Cruzain noTriton	RE007 growth inh	Lassa entry inh	Marburg entry inh	SARS PLpro yeast	Cruzain inh Det	StopGo reporter
CCOc1ccc(-n2nnnc2SCC(=O)NNC(=O)c2ccco2)cc1	18%	nt	-21%	1%	34%[46.1 µM]	0%	nt	-3%
O=C(COc1ccc(S(=O)(=O)NC2CCCC2)cc1)N1CCCCC1	5%	nt	10%	-29%	nt	-6%	nt	8%
COCCNC(=S)N(CCCN(C)C)Cc1cc2cc3c(cc2[nH]c1=O)OCCO3	11%	nt	11%	nt	nt	1%	nt	-10%
Cc1ccc(/C=N/n2cnnc2)s1	2%	7%	-16%[3.69 µM]	4%	-4%	-4%	-7.9%	0%
O=C(Nc1ccccc1C(F)(F)F)c1cc2nc(-c3ccccc3)cc(-c3ccccc3)n2n1	nt	-6%	nt	2%[46.1 µM]	nt	nt	-2.1%	-16%
O=C(CCCOc1ccccc1)Nc1ccc(Br)cc1	nt	nt	8%	?	?	nt	nt	26%

Screens (PubChem BioAssay)
